Bioassay records from PubChem.
Ecoli rRNA inh = inhibits bacterial ribosomal RNA function over humanized ribosomes; E. coli WT GFP vs humanized-ribosome RFP mutants, fluorescence, 24 h; active compounds read low; DMSO median 0, no signal -100; GFP signal change (wild-type ribosome), % (test concentration not listed); hit rate 1.6% among 350,000;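 active means significant combined selectivity score with lowered wild-type GFP, culture density cut under 30%, mutant RFP and density less affected; inactive means any of these conditions unmet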; further: one replicate is shown; some compounds called inactive have numbers as strong as hits
Ecoli rRNA inh OD600 = second read-out of Ecoli rRNA inh, no call of its own (marks repeat the call); OD600 change, %; measured here: OD600 growth;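 optical density of the mix in the first replicate; 0 = DMSO median and -100 = no signal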
Ecoli rRNA inh RFP = further read-out of Ecoli rRNA inh, marked with its call; RFP signal change, %; measured here: RFP humanized mutant strains;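 first replicate; 0 = DMSO median and -100 = no signal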
Numbers without * were called inactive. These rows are one share of the data; rates above refer to the full screens.

No.	Ecoli rRNA inh	Ecoli rRNA inh OD600	Ecoli rRNA inh RFP	Compound
1	8.4	-1.1	-1.1	CNC[C@H]1OCCCC[C@H](C)Oc2ccc(NC(=O)Nc3c(C)noc3C)cc2C(=O)N([C@@H](C)CO)C[C@@H]1C
2	-0.8	5.9	-2.3	C[C@H]1CC(=O)N[C@@H](c2ccccc2)C/C=C\C[C@H](c2ccc3c(c2)OCO3)NC1=O
3	-7.8	-4.7	3.9	CC[C@@H]1CC=CC[C@@H](C)Oc2ccccc2C(=O)N(C)[C@H](C(C)C)C(=O)N1 (mixture of isomers)
4	3.0	1.9	-0.7	Cc1noc(C)c1NC(=O)Nc1ccc2c(c1)C(=O)N([C@H](C)CO)C[C@@H](C)[C@@H](CN(C)C(=O)Nc1ccccc1)O2
5	2.5	-4.1	15.8	O=S(=O)(c1ccccc1)N1CCCCN2[C@H](CO)[C@@H](c3ccc(-c4ccccc4F)cc3)[C@@H]2C1
6	9.9	4.5	-0.4	O=C(c1ccccn1)N1CC(=O)N2[C@H](CO)[C@H](c3ccc(C4=CCCC4)cc3)[C@@H]2C1
7	2.4	5.4	-0.9	CCC(=O)N1CC(=O)N2[C@@H](CO)[C@H](c3ccc(-c4ccccc4F)cc3)[C@@H]2C1
8	-13.4	-45.5	29.1	COC(=O)c1ccc(CN2CC(=O)N3[C@@H](CO)[C@@H](c4ccc(-c5ccccc5F)cc4)[C@@H]3C2)cc1
9	-4.4	-7.3	5.5	O=C(NCC[C@H]1CC[C@@H](NS(=O)(=O)c2ccc(Cl)cc2)[C@H](CO)O1)Nc1ccc(F)cc1
10	-3.0	-19.8	9.7	CCCC#Cc1ccc([C@H]2[C@@H](CO)N3C(=O)CN(C(=O)Nc4ccccc4)C[C@@H]23)cc1

No.	Ecoli rRNA inh	Ecoli rRNA inh OD600	Ecoli rRNA inh RFP	Compound
11	-1.4	-5.2	1.1	C[C@@H]1CN([C@@H](C)CO)C(=O)c2cc(NC(=O)Cc3ccccc3)ccc2O[C@@H](C)CCCCO[C@@H]1CN(C)Cc1ccncc1
12	1.6	-21.3	5.4	Cc1noc(C)c1S(=O)(=O)Nc1ccc2c(c1)C(=O)N([C@@H](C)CO)C[C@@H](C)[C@@H](CN(C)Cc1ccc(C(F)(F)F)cc1)O2
13	3.4	0.1	-4.7	CC(C)[C@H]1C(=O)NCCC=CC[C@H](C)Oc2ccccc2C(=O)N1C (mixture of isomers)
14	0.1	1.9	-1.3	COCC(=O)Nc1ccc2c(c1)C(=O)N(C)C[C@H](OC)[C@@H](C)CN(Cc1ccccn1)[C@H](C)CO2
15	-0.2	0.7	0.4	O=C(NC1CCCCC1)N1CC(=O)N2[C@@H](CO)[C@@H](c3ccc(-c4cccnc4)cc3)[C@@H]2C1
16	2.7	1.7	-2.0	COc1ccc2c3c(n(C)c2c1)[C@H](CO)NCC31CCN(C(=O)Nc2ccc3c(c2)OCO3)CC1
17	2.2	-0.1	0.3	O=C(C[C@H]1C[C@@H]2c3cc(NC(=O)c4cccnc4)ccc3O[C@@H]2[C@H](CO)O1)NC1CCCC1
18	2.1	-8.6	2.3	COc1ccccc1C(=O)Nc1ccc2c(c1)OC[C@H](C)NC[C@H](C)[C@H](OC)CN(C)C2=O
19	-3.8	10.0	-4.7	C[C@@H]1CC=CC[C@H](c2ccc3c(c2)OCO3)NC(=O)[C@@H](Cc2ccccc2)N(C)C(=O)c2ccccc2O1 (mixture of isomers)
20	0.5	1.9	-5.2	C[C@@H]1CN([C@@H](C)CO)C(=O)c2cc(-c3ccncc3)cnc2O[C@@H]1CN(C)C(=O)C1CCC1

No.	Ecoli rRNA inh	Ecoli rRNA inh OD600	Ecoli rRNA inh RFP	Compound
21	1.9	5.8	-3.1	COc1ccc(NC(=O)N2CC(=O)N3[C@H](C2)[C@H](c2ccc(C4=CCCC4)cc2)[C@@H]3CO)cc1
22	-0.7	6.2	-4.0	CC(C)N(C[C@@H]1N[C@H](CO)[C@@H]1c1ccc(C2=CCCC2)cc1)C(=O)C1CC1
23	-0.2	3.6	0.1	C/C=C/c1ccc([C@H]2[C@@H](CO)N(C(C)=O)[C@H]2CN(CCOC)C(C)=O)cc1
24	4.9	2.4	1.5	C[C@@H]1CN([C@@H](C)CO)C(=O)c2cc(NS(=O)(=O)c3ccccc3)ccc2O[C@@H]1CN(C)C
25	1.2	8.4	0.3	COc1ccc2c3c([nH]c2c1)[C@H](CO)NCC31CCN(C(=O)Cc2cccnc2)CC1
26	0.2	-3.7	-0.6	C/C=C/c1ccc([C@H]2[C@@H](CO)N(CC3CC3)C23CN(C(=O)COC)C3)cc1
27	4.6	13.6	0.1	CNC[C@H]1Oc2ccc(NC(=O)CCCN(C)C)cc2C(=O)N([C@H](C)CO)C[C@@H]1C
28	0.9	-4.3	-2.4	C[C@H](CO)N1C[C@H](C)[C@@H](CN(C)C(=O)Nc2ccc3c(c2)OCO3)Oc2c(NC(=O)NC3CCCCC3)cccc2C1=O
29	-3.1	-0.1	1.7	COc1ccc(S(=O)(=O)Nc2ccc3c(c2)C(=O)N([C@H](C)CO)C[C@@H](C)[C@H](CN(C)C(=O)Nc2ccccc2)OCCCC[C@H](C)O3)cc1
30	-3.6	-11.7	6.0	CS(=O)(=O)N1CC(=O)N2[C@@H](CO)[C@H](c3ccc(C#Cc4cccc(F)c4)cc3)[C@@H]2C1

No.	Ecoli rRNA inh	Ecoli rRNA inh OD600	Ecoli rRNA inh RFP	Compound
31	-1.2	0.8	-0.6	CO[C@H]1CN(C)C(=O)c2ccc(NS(=O)(=O)CC(F)(F)F)cc2OC[C@H](C)N(Cc2ccccn2)C[C@@H]1C
32	-23.6	-59.5	14.0	O=C(Nc1cccc(F)c1)N1CC(=O)N2[C@H](CO)[C@H](c3ccc(-c4ccccc4)cc3)[C@H]2C1
33	2.9	-2.2	1.9	O=C(c1cnccn1)N1CC(=O)N2[C@H](C1)[C@@H](c1ccc(C#CC3CCCC3)cc1)[C@@H]2CO
34	0.2	-1.2	-4.7	Cc1noc(C)c1NC(=O)Nc1ccc2c(c1)C(=O)N([C@H](C)CO)C[C@H](C)[C@H](CN(C)S(=O)(=O)c1ccccc1)OCCCC[C@@H](C)O2
35	2.9	-0.5	-2.4	CC(C)NC(=O)Nc1ccc2c(c1)CC(=O)N([C@@H](C)CO)C[C@@H](C)[C@@H](CN(C)C(=O)NC1CCCCC1)O2
36	1.2	6.7	-1.4	CCC(=O)N1CC[C@@H]2[C@@H](CO)Nc3ccc(-c4ccccc4)cc3[C@@H]21
37	3.9	6.6	-0.5	O=C(C[C@@H]1CC[C@H](NC(=O)C2CCOCC2)[C@@H](CO)O1)NCc1ccncc1
38	-2.5	2.9	1.7	C[C@H]1CC(=O)N[C@H](c2ccccc2)C/C=C\C[C@H](c2ccc3c(c2)OCO3)NC1=O
39	-0.4	11.8	-4.9	COCC(=O)N1CC(=O)N2[C@H](CO)[C@H](c3ccc(C#Cc4cccnc4)cc3)[C@H]2C1
40	8.2	-1.2	-2.1	CC(C)CC#Cc1ccc2c(c1)O[C@@H](CN(C)Cc1ccc3c(c1)OCO3)[C@H](C)CN([C@@H](C)CO)S2(=O)=O

No.	Ecoli rRNA inh	Ecoli rRNA inh OD600	Ecoli rRNA inh RFP	Compound
41	1.5	3.3	-3.3	CCCC(=O)N1CC2(C1)CN(C(=O)Nc1c(C)noc1C)[C@H](CO)c1c2c2ccc(OC)cc2n1C
42	1.2	2.5	-0.7	O=C(N[C@H]1CC[C@H](CCn2cc(C3CCCC3)nn2)O[C@@H]1CO)c1cccnc1
43	-3.5	-0.6	0.0	CCCC(=O)N1CC2(C1)CN(S(=O)(=O)c1ccc(C)cc1)[C@H](CO)c1[nH]c3cc(OC)ccc3c12
44	-4.1	-1.9	0.7	O=C(NCCN1CCCCC1)[C@H]1[C@H](CO)[C@H]2Cn3c(cccc3=O)[C@@H]1N2C(=O)C1CCCCC1
45	2.9	8.4	-2.2	O=C(C[C@H]1C[C@H]2c3cc(NC(=O)C4CCOCC4)ccc3O[C@H]2[C@@H](CO)O1)NCC1CC1
46	-1.5	3.0	0.2	CO[C@@H]1CN(C)C(=O)c2cc(NS(C)(=O)=O)ccc2OC[C@@H](C)N(Cc2cccnc2)C[C@H]1C
47	7.3	-25.2	8.5	O=S(=O)(Cc1ccccc1)N1[C@@H]2CNC[C@H]1C2c1ccc(-c2ccccc2)cc1 (stereo partly drawn)
48	0.6	-0.3	0.5	CC(=O)N(C)C[C@H]1[C@@H](c2ccc(-c3ccc(C#N)cc3)cc2)[C@@H](CO)N1C(C)=O
49	2.7	6.5	-5.2	C[C@H](CO)N1C[C@H](C)[C@H](CN(C)C(=O)C2CCOCC2)Oc2ncc(C#CC3(O)CCCC3)cc2C1=O
50	-1.3	1.3	-0.8	CN1C(=O)c2cc(NC(=O)C3CC3)ccc2OC[C@@H]2O[C@@H](CC(=O)NCc3ccccc3F)CC[C@@H]21

Reprinted at random: 4 entries already listed, in no set order.
No.	Ecoli rRNA inh	Ecoli rRNA inh OD600	Ecoli rRNA inh RFP	Compound
46	-1.5	3.0	0.2	CO[C@@H]1CN(C)C(=O)c2cc(NS(C)(=O)=O)ccc2OC[C@@H](C)N(Cc2cccnc2)C[C@H]1C
42	1.2	2.5	-0.7	O=C(N[C@H]1CC[C@H](CCn2cc(C3CCCC3)nn2)O[C@@H]1CO)c1cccnc1
41	1.5	3.3	-3.3	CCCC(=O)N1CC2(C1)CN(C(=O)Nc1c(C)noc1C)[C@H](CO)c1c2c2ccc(OC)cc2n1C
50	-1.3	1.3	-0.8	CN1C(=O)c2cc(NC(=O)C3CC3)ccc2OC[C@@H]2O[C@@H](CC(=O)NCc3ccccc3F)CC[C@@H]21

Molecules shown so far with a CF3 group:
No.	Ecoli rRNA inh	Ecoli rRNA inh OD600	Ecoli rRNA inh RFP	Compound
12	1.6	-21.3	5.4	Cc1noc(C)c1S(=O)(=O)Nc1ccc2c(c1)C(=O)N([C@@H](C)CO)C[C@@H](C)[C@@H](CN(C)Cc1ccc(C(F)(F)F)cc1)O2
31	-1.2	0.8	-0.6	CO[C@H]1CN(C)C(=O)c2ccc(NS(=O)(=O)CC(F)(F)F)cc2OC[C@H](C)N(Cc2ccccn2)C[C@@H]1C

(cont.)
No.	Ecoli rRNA inh	Ecoli rRNA inh OD600	Ecoli rRNA inh RFP	Compound
51	-0.3	-2.4	-3.6	Cc1noc(C)c1NC(=O)Nc1ccc2c(c1)C(=O)N([C@H](C)CO)C[C@@H](C)[C@H](CN(C)Cc1ccccc1)OCCCC[C@@H](C)O2
52	-1.4	-1.8	0.2	COc1ccc2c3c([nH]c2c1)[C@@H](CO)N(Cc1ccccc1)CC31CN(C(=O)c2ccccn2)C1
53	0.3	4.7	-0.3	C[C@@H]1CN([C@@H](C)CO)C(=O)c2c(c3ccccc3n2C)-c2ccccc2CO[C@H]1CN(C)S(=O)(=O)c1cccc(F)c1
54	1.2	7.2	0.9	COc1cccc(S(=O)(=O)Nc2ccc3c(c2)[C@H]2C[C@@H](CC(=O)O)O[C@@H](CO)[C@H]2O3)c1
55	0.6	0.4	-1.9	CO[C@H]1CN(C)C(=O)c2ccc(NC(=O)C3CC3)cc2OC[C@@H](C)N(Cc2cncnc2)C[C@H]1C
56	1.8	2.8	-1.3	C[C@@H]1CN([C@H](C)CO)C(=O)CCCn2cc(nn2)CO[C@@H]1CN(C)C(=O)c1ccncc1
57	0.6	-5.0	1.6	C[C@@H]1CCCCO[C@@H](CN(C)Cc2ccncc2)[C@H](C)CN([C@@H](C)CO)C(=O)c2cc(NC(=O)Cc3ccccc3)ccc2O1
58	3.0	-2.7	0.5	CCC(=O)N(C)C[C@H]1Oc2cc(C3=CCCCC3)ccc2S(=O)(=O)N([C@@H](C)CO)C[C@@H]1C
59	2.4	-1.4	0.4	CN(C)C(=O)C[C@H]1C=C[C@@H](NC(=O)C2CCOCC2)[C@@H](CO)O1
60	0.2	2.2	1.7	CC(C)NC(=O)Nc1ccc2c(c1)C(=O)N([C@@H](C)CO)C[C@@H](C)[C@H](CN(C)C(=O)Nc1ccccc1)OCCCC[C@@H](C)O2
